StopGo FLuc = FMDV 2A StopGo reporter, firefly signal. HEK cells with a luciferase reporter of 2A StopGo recoding. Potency, µM (titrated, usually from 57.5 µM), for the others: at the top dose signal change, negative = less light. actives 0.23% (n = 120,000). AID 1745856; active = well fitted falling curve with a large enough effect; inconclusive = small, poorly fitted or top-dose-only effect; inactive = no such curve, though single readings can be large or run the other way; note: nearly all actives have a fitted effect of over 60% in size; overnight with compound
StopGo RLuc = FMDV 2A StopGo reporter, Renilla signal | HEK cells with a luciferase reporter of 2A StopGo recoding | Potency, µM (top dose mostly 57.5 µM), without a hit: at the highest dose signal change, negative = less light | actives 0.32% (n = 120,000) | AID 1745857; active means well fitted falling curve with a large enough effect; inconclusive means small, poorly fitted or top-dose-only effect; inactive means no such curve, though single readings can be large or run the other way; note: nearly all actives have a fitted effect of over 55% in size; overnight with compound
An asterisk follows results filed as active; ? = inconclusive; & = joins results of further samples; [ ] = another dose, or the depositor's remark. % is set by controls: 0 for no effect and ±100 for the full control effect; potency is the fitted concentration of half-maximal effect. Not all compounds are listed, so the mix of outcomes need not match the whole.

SMILES | StopGo FLuc | StopGo RLuc
CCOC(=O)c1cccc(NC(=O)C2CCCN(S(=O)(=O)c3ccc4c(c3)oc(=O)n4C)C2)c1 (centres undefined) | -12% | -3%
Cc1ccccc1Nc1cc(C(=O)NCCc2ccc(Cl)cc2)c2ccccc2n1 | -25% | -32%
COc1ccc(NC(=O)C2=C(C)Nc3nc(SCc4ccccc4C)nn3C2c2cc(OC)c(O)c(OC)c2)cc1 (centres undefined) | -1% | -12%
Cc1cc(N2CCN(c3ccccc3)CC2)n2nc(-c3ccco3)nc2n1 | 21% | 22%
COc1ccc2oc(=O)c(-c3nc(-c4ccc(C)cc4)no3)cc2c1 | -6% | -11%
CC(C)=CC(=O)Nc1cccc2c1CCCC2 | 17% | 10%
O=C(/C=C/c1ccc(F)cc1)c1ccc(-c2ccccc2)cc1 | 0% | -9%
COc1ccc(-c2ccc3c(N)c(C(=O)Nc4cccc(C)c4)sc3n2)cc1 | -7% | 6%
Nc1nc2c(ncn2COC(CO)CO)c(=O)[nH]1 | -17% | -11%
CC(=O)NS(=O)(=O)c1ccc(N)cc1 | -12% | -6%
Cc1cc2nc(SCC(=O)Nc3ccc(F)c(Cl)c3)[nH]c(=O)c2[nH]1 | 5% | 1%
O=C(O)CC1(CC(=O)NC2CCN(Cc3ccccc3)CC2)CCCC1 | -1% | 6%
C=CCOC(=O)Oc1ccc2c(=O)c(Oc3ccc(CC)cc3)c(C(F)(F)F)oc2c1 | ? | ?
COc1ccccc1NC(=O)C1CCN(c2nccnc2Sc2ccc(C)cc2)CC1 | 5% | -1%
COc1cccc(CNC(=O)Cn2ncc3ccc(OC)c(OC)c3c2=O)c1 | -2% | -18%
CSC1=N/C(=C\c2cccc(OCc3ccccc3)c2)C(=O)S1 | 21% | 0%
CCC(=O)N1CCc2cc(Br)cc(S(=O)(=O)N3CCCC(C(=O)Nc4cccc(C)c4C)C3)c21 (centres undefined) | -18% | 9%
COc1ccc(Nc2nc3c(S(=O)(=O)c4ccc(C)cc4)nnn3c3ccsc23)cc1Cl | -21% | -6%
CC(C)c1ccc(NC(=O)/C=C/c2ccccc2F)cc1 | 53%[activator] | 34%[activator]
CC(=O)c1cnc(N2CC(C)CC(C)C2)nc1C (centres undefined) | 8% | -11%
Cc1ccc(OCC(=O)Nc2ccc(S(=O)(=O)Nc3ncccn3)cc2)c(C(C)(C)C)c1 | -22% | -13%
COc1ccccc1N1CCN(C(=O)Nc2cn(CC(C)C)c(=O)c3ccccc23)CC1 | 24% | 15%
COc1ccc(NC(=S)NNC(N)=O)cc1 | 7% | 7%
Nc1nccnc1C(=O)Nc1cccc(NC(=O)c2cccnc2)c1 | 0% | -5%
O=C1CC(CO)CN1 (centres undefined) | 13% | 8%
CC(Sc1ncnc2nc[nH]c12)C(=O)Nc1ccc(Oc2ccccc2)cc1 (centres undefined) | ? | ?
CCCCc1nc(NCCN(C)C)c(C#N)c2c1CCCC2 | -8% | -9%
CCOc1ccc(NS(=O)(=O)c2ccc3c(c2)NC(=O)CCS3)cc1 | ? | 13%
O=C(NCc1ccc(Cl)cc1)c1ccc2c(c1)nnn2C1CCCC1 | -7% | -6%
CCCN(CC(=O)Nc1ccccc1C(=O)Nc1cccc(C)c1)Cc1nnc(-c2ccco2)o1 | 25% | 48%[activator]
O=C(NC1CCCCCC1)c1cc(Cl)nc(Cl)c1 | 20% | 40%[activator]
C/C(=N/N=C(c1ccccc1)c1ccccc1)c1cccnc1 | ? | ?
CN(CCO)c1cccc2c1S(=O)(=O)N(Cc1cn(Cc3cccc(C(F)(F)F)c3)nn1)Cc1ccccc1O2 | 95%[activator] | 144%[activator]
COC(=O)c1cc(NC(=O)[C@H](CCS(C)(=O)=O)N2Cc3ccccc3C2=O)cc(C(=O)OC)c1 | -6% | -7%
COCCn1c(SC(C)C(=O)NC(N)=O)nnc1-c1cccc(C)c1 (centres undefined) | -4% | -9%
O=C(NCCc1ccccc1)c1nc(-c2ccc3[nH]ccc3c2)no1 | 78%[activator] | 30%
COc1ccc(C(c2c(O)cc(C)n(Cc3ccco3)c2=O)N2CCN(c3ccccc3)CC2)cc1 (centres undefined) | -26% | 11%
NC(=O)C1CCN(C(=O)C(=O)NCCNC(=O)c2cc3ccccc3[nH]2)CC1 | 5% | -5%
CN(C)c1cccc(C(=O)Nc2nc3ccc(S(=O)(=O)NC(C)(C)C)cc3s2)c1 | -10% | 164%[activator]
CCC(C(=O)OCCN1CCOC(c2ccccc2)C1C)c1ccccc1 (centres undefined) | -25% | -15%
Cc1c2cnn(CC(=O)NCc3ccc(Cl)cc3)c(=O)c2c(C)n1Cc1ccc(F)cc1 | -12% | -5%
COc1ccc(N2C(=O)c3ccccc3NC2c2cnn(-c3ccccc3)n2)c(OC)c1 (centres undefined) | 58%[activator] | 11%
COC(=O)c1ccc(Nc2nc(-c3ccncc3)nc3ccccc23)cc1 | 13% | 2%
Cc1ccc(N(C(C)C(=O)NCc2ccncc2)S(C)(=O)=O)cc1 (centres undefined) | -9% | -2%
COc1ccc(CCNC(=O)c2cn(C)c3ccc(S(=O)(=O)N(C)C4CCCCC4)cc3c2=O)cc1OC | 1% | -13%
Cc1cc(NC(=O)CSc2nc(-c3ccccc3C)nc3c2c(=O)n(C)c(=O)n3C)no1 | -14% | -15%
O=C1Nc2ccccc2CCC1n1nc(-c2ccccc2)ccc1=O (centres undefined) | -16% | -12%
O=C(CCCC(=O)OCC(=O)c1ccc(Cl)cc1)NC1CCCCC1 | 7% | -2%
CCNC(=O)c1cc2cc(N(C)S(C)(=O)=O)ccc2s1 | 86%[activator] | 1%
CN(C)CCNC(=O)Cn1c(=O)c2cccn2c2ccc(F)cc21 | -23% | -7%
COc1cc(CN(C(=O)c2cc3ccccc3oc2=O)C2CCS(=O)(=O)C2)cc(OC)c1OC (centres undefined) | 43%&13%[activator] | -7%&2%
Cc1nc2ccc3nc(C)sc3c2s1 | 128%[activator] | -3%
CCn1cc2nc(SCc3cccc(C(F)(F)F)c3)n(Cc3ccc(OC)cc3)c(=O)c2n1 | -24% | -17%
O=C(NC12CC3CC(CC(C3)C1)C2)C1CC=CCC1 (centres undefined) | -2% | 20%
O=C(OCc1nc2ccccc2o1)c1ccc(F)cc1 | 3% | -11%
O=S(=O)(NCc1ccc(N2CCOCC2)nc1)c1cc(Br)ccc1Br | -8% | 37%[activator]
CCN(C(=O)CSc1ncnc2ccccc12)c1ccccc1 | 3% | -15%
CC1=C(C(=O)N2CCN(c3cc(C)ccc3C)CC2)C2(CCC(C)CC2)OC1=O (centres undefined) | -14% | ?
CSc1nnnn1-c1cccc(NC(=O)c2cccc(Cl)c2)c1 | 20% | 16%
CCCCCCSc1nc(N)c2c3c(sc2n1)CCCC3C (centres undefined) | 48%[activator] | 21%

No new results follow: an excerpt of the list.
SMILES | StopGo FLuc | StopGo RLuc
O=C(CCCC(=O)OCC(=O)c1ccc(Cl)cc1)NC1CCCCC1 | 7% | -2%
CCNC(=O)c1cc2cc(N(C)S(C)(=O)=O)ccc2s1 | 86%[activator] | 1%
CN(C)CCNC(=O)Cn1c(=O)c2cccn2c2ccc(F)cc21 | -23% | -7%
COc1cc(CN(C(=O)c2cc3ccccc3oc2=O)C2CCS(=O)(=O)C2)cc(OC)c1OC (centres undefined) | 43%&13%[activator] | -7%&2%
Cc1nc2ccc3nc(C)sc3c2s1 | 128%[activator] | -3%
CCn1cc2nc(SCc3cccc(C(F)(F)F)c3)n(Cc3ccc(OC)cc3)c(=O)c2n1 | -24% | -17%
O=C(NC12CC3CC(CC(C3)C1)C2)C1CC=CCC1 (centres undefined) | -2% | 20%
O=C(OCc1nc2ccccc2o1)c1ccc(F)cc1 | 3% | -11%
O=S(=O)(NCc1ccc(N2CCOCC2)nc1)c1cc(Br)ccc1Br | -8% | 37%[activator]
CCN(C(=O)CSc1ncnc2ccccc12)c1ccccc1 | 3% | -15%
CC1=C(C(=O)N2CCN(c3cc(C)ccc3C)CC2)C2(CCC(C)CC2)OC1=O (centres undefined) | -14% | ?
CSc1nnnn1-c1cccc(NC(=O)c2cccc(Cl)c2)c1 | 20% | 16%
CCCCCCSc1nc(N)c2c3c(sc2n1)CCCC3C (centres undefined) | 48%[activator] | 21%

Further records.
SMILES | StopGo FLuc | StopGo RLuc
Cc1ccc(Nc2cc(C(=O)N3CCOCC3)c3ccccc3n2)cc1 | 50%[activator] | 118%[activator]
CC(=O)c1ccc(NC(=O)CCSc2nc(-c3ccco3)cc(C(F)(F)F)n2)cc1 | 50%[activator] | -3%
COCC(C)NC(=O)C1=CC(c2cccs2)=NS(=O)(=O)N1C (centres undefined) | 1% | 12%
Cc1cccc(C(=O)NC(NC(=O)c2cccc(C)c2)c2ccccc2)c1 | 66%[activator] | 31%
Cc1ccc(-n2c(/C=C/c3ccco3)nc3ccccc3c2=O)cc1 | 39%[activator] | 13%
COc1ccc(C(=O)OCCOc2ccc(C#N)cc2)cc1F | 18% | 9%
COC(=O)c1c(SC)nc2ccccc2c1OCc1ccccc1C | -7% | 19%
CCC(C)NC(=O)Cn1c(=O)n(CCCCCC(=O)NCc2ccccc2Cl)c(=O)c2sccc21 (centres undefined) | 37%[activator] | -3%
O=c1oc2cc(OCc3nn[nH]n3)ccc2cc1-c1ccc(Cl)cc1 | 83%[activator] | -1%
COCC(C)NC(=O)c1cc2ccccc2oc1=O (centres undefined) | 178%[activator] | 15%
CCCn1nc(C(=O)OCc2nc(-c3ccccc3)no2)c2ccccc2c1=O | 3% | -10%
CCOc1ccc(C=O)cc1-c1ccccc1 | -4% | -9%
CCOC(=O)c1sc2nc(C(C)N3CCOCC3)[nH]c(=O)c2c1C (centres undefined) | 7% | 0%
COC(=O)c1c(SCC(=O)Nc2cccc(Cl)c2C)[nH]c2ccccc2c1=O | ? | ?
CCN1c2cc(C)ccc2-n2cccc2C12CCN(C(=O)Nc1cc(OC)ccc1OC)CC2 | -3% | 7%
Cc1ccc(Cn2cc(CCC(=O)NC3CCC(C)CC3)c3ccccc32)cc1 (centres undefined) | 76%[activator] | -2%
COc1ccc(NC(=O)c2cnc3cc(C)ccn3c2=O)c(OC)c1 | 8% | 5%
CCCc1cc(=O)oc2cc(OCc3c(C)c(C)cc(C)c3C)ccc12 | -3% | 2%
O=C(COc1ccc2ccc(=O)oc2c1)Nc1ccc(F)cc1F | 33%[activator] | 1%
COCCCNC(=O)c1ccc(Cn2c(=O)c3ccccc3n(Cc3ccc(Cl)cc3)c2=O)cc1 | 8% | 5%
CCOc1cccc(C2C(C#N)=C(N)OC(C(C)(C)C)=C2C#N)c1OCC (centres undefined) | 16% | 0%
O=C(COc1ccccc1Cl)Nc1cccc(-c2nc3ccccc3o2)c1 | 18% | -1%
CC(C)CCN(C(=O)Nc1ccc(Cl)c(Cl)c1)C1CCN(C(C)C)CC1 | -5% | -7%
N#Cc1cn(CC(=O)Nc2ccc(Cl)c(Cl)c2)c2ccccc12 | ? | -18%
CCOc1ccc(NC(=O)Nc2nnc(N3CCCCC3C)s2)cc1 (centres undefined) | 13% | -5%
CC(=O)c1ccc(NC(=O)C(=O)c2c[nH]c3ccccc23)cc1 | 157%[activator] | 10%
CC(C)CCNC(=O)Cn1cc(S(=O)(=O)Cc2ccc(F)cc2)c2ccccc21 | 3% | 31%[activator]
O=[N+]([O-])c1cccc(N/N=C/c2cccc(Br)c2)c1 | 241%[activator] | -1%
O=C(CCc1nc(-c2ccsc2)no1)Nc1ccc(N2CCOCC2)cc1 | 12% | -8%
Cc1c(C(=O)Nc2nonc2-c2ccccc2)oc2ccc(F)cc12 | 12% | 15%
CCc1cccc(C)c1NC(=O)c1nc2ccccc2nc1N1CCCC1 | -4% | -7%
COc1ccccc1N1CCN(S(=O)(=O)c2cc(C(=O)Nc3ccc(Oc4ccccc4)cc3)ccc2F)CC1 | ? | ?
O=C(NCc1ccccn1)C1(c2cccc(C(F)(F)F)c2)CCOCC1 | -3% | -14%
Cc1nn(CC(=O)Nc2ccc(NC(=O)CC(C)C)cc2)c(=O)c2ccccc12 | -15% | -9%
CCOC(=O)CCc1c(C)nc2cc(-c3cc(OC)cc(OC)c3)[nH]n2c1=O | 5% | 4%
Cn1c(=O)c2c(nc(SCc3cccc(F)c3)n2Cc2ccccc2)n(C)c1=O | -26% | -28%
Cc1ccc(C(=O)Nc2c(C)cccc2C(C)C)s1 | 4% | 3%
COc1cccc(-c2nc(-c3nc4ccccc4s3)cs2)c1OC | 265%[activator] | 46%[activator]
CCn1c(CNC(=O)c2ccc(OC)cc2)nnc1SCC(=O)Nc1ccc(OC)cc1 | 26% | -11%
CCc1ccc(NC(=O)C(=O)NCC(c2cccnc2)N2CCOCC2)cc1 (centres undefined) | -13% | -13%
COc1ccc(C2CCCN2Cc2cc(OC)c(OC)c(OC)c2)cc1 (centres undefined) | -18% | -18%
N#Cc1cccc(NC(=O)CCNS(=O)(=O)c2ccc3c(c2)CCN3C(=O)C2CC2)c1 | -13% | 14%
CCOC(=O)Cn1c(=O)c2c3c(sc2n(CCCN(C)C)c1=O)CCCC3 | 2% | ?
CCOc1ccc(C(=O)N2CCN(c3oc(-c4cccs4)nc3C#N)CC2)cc1 | 3% | 3%
CCOC(=O)c1oc2cc(O)ccc2c(=O)c1-c1ccc(Br)cc1 | 7% | 6%
CN(C)c1ccc(-n2c(CCC(=O)O)ccc2-c2ccccc2)cc1 | -7% | 12%
COc1cccc(C(Nc2ccccn2)c2c(NC(=O)c3ccco3)sc(C)c2C)c1 (centres undefined) | 0% | 0%
CC1=C(C(=O)N2CCCCC2)C(c2ccc(C)cc2)C2=C(CC(C)(C)CC2=O)N1 (centres undefined) | 1% | 9%
